DAX1_inh-1 = inhibitors of human orphan nuclear receptor DAX1 (NR0B1). P51843. 340,000 compounds, 0.99% hits. AID 504766. inhibition, % at 6.75 µM. HEK293 Gal4-DAX1 luciferase reporter, luminescence;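 active means inhibition above the mean over all tested compounds plus 3 SD, cut at about 4.2% in these data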;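 further: 0% = DAX1-transfected cells with DMSO and 100% = empty-vector control cells with DMSO; inhibition shows as a rise in luminescence from relieved DAX1 repression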
ADAM17_inh = inhibitors of human ADAM17. recombinant ADAM17, EDANS/DABCYL FRET peptide cleavage. inhibition, % at 6.95 µM. 370,000 compounds, 0.83% hits. AID 720648;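 active means inhibition above the mean of compounds lying between control limits plus 3 SD, set per campaign, cut at about 8.5% in these data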;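 further: 0% = DMSO-only wells as the low control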
PG9_binder = PG9 antibody binding by small molecule; inhibition, % at 6.7 µM; TR-FRET gp120-PG9 antibody binding; 360,000 compounds, 0.43% hits; in the data active means inhibition above about 8.5%
DAX1_inh-2 = inhibitors of DAX1 repression of SF-1 activated StAR promoter; 370,000 compounds, 1.1% hits; inhibition, % at 6.8 µM; HEK293T StAR-luciferase reporter, SF-1/DAX-1 repression relief; AID 652010;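 active means inhibition above the mean over all tested compounds plus 3 SD, cut at about 3.6% in these data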;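 further: 0% = DAX-1 cells with DMSO and 100% = cells lacking DAX-1 with DMSO; higher inhibition means more luminescence from relief of DAX-1 repression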
GAA850_FXN_act = activators of GAA850 frataxin (FXN) promoter. HEK293 lucGAA850 FXN promoter luciferase reporter, 24 h; percent of 10 µM SAHA response. activation, % at 6 µM. 360,000 compounds, 0.56% hits;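 active means activation above the average of all compounds screened plus 3 SD, cutoff fixed separately per campaign, cut at about 7.5% in these data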;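 further: 0% = DMSO wells and 100% = 10 µM SAHA wells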
ADAM10_inh = inhibitors of human ADAM10. O14672. recombinant ADAM10, EDANS/DABCYL FRET peptide cleavage, 3 h. inhibition, % at 7 µM. 370,000 compounds, 0.62% hits;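 active means inhibition above a per-campaign cutoff equal to the mean of compounds falling between control-based bounds plus 3 SD, cut at about 20% in these data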;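 further: 0% = DMSO wells while the 100% control is not disclosed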
Numbers without * were called inactive; i = inactive; . = no result given. These rows are one share of the data. The share of hits here may be higher or lower than overall.

SMILES DAX1_inh-1 ADAM17_inh PG9_binder DAX1_inh-2 GAA850_FXN_act ADAM10_inh
CC[C@]12CCCN3CCc4c(n(c5ccccc45)C(=O)C1)[C@@H]32 0.5 -2.9 1.4 -1.8 -3.8 -31.8
Nc1nnc(-c2cccc(Cl)c2Cl)c(N)n1 0.5 -1.9 -2.1 0.7 1.8 -1.3
COc1ccc2cc(C3=CCCCC3)ncc2c1 1.7 -114.9 2.0 2.7 2.5 i
CC[C@H]1CN2CCc3cc(OC)c(OC)cc3[C@@H]2C[C@@H]1C[C@H]1NCCc2cc(OC)c(OC)cc21 -5.6 . . . -14.8 .
CN(C)c1ccc(/C=N/NC(=O)c2ccccc2)cc1 2.6 1.8 -13.4 2.1 5.0 3.7
Nc1ccn([C@@H]2O[C@H](CO)[C@@H](O)[C@H]2O)c(=O)n1 -0.5 -6.6 1.6 0.2 -0.8 -6.0
O=C(OCc1ccccc1)N1CCc2ccccc21 4.5* -3.2 0.8 2.6 4.3 5.9
Cc1cc(C)n2nc(-c3cccc(Br)c3)cc2n1 4.8* -11.5 -0.7 2.1 9.1* -16.7

Arranged by number of heavy atoms (largest number first): part of the list above.
SMILES DAX1_inh-1 ADAM17_inh PG9_binder DAX1_inh-2 GAA850_FXN_act ADAM10_inh
CC[C@]12CCCN3CCc4c(n(c5ccccc45)C(=O)C1)[C@@H]32 0.5 -2.9 1.4 -1.8 -3.8 -31.8
O=C(OCc1ccccc1)N1CCc2ccccc21 4.5* -3.2 0.8 2.6 4.3 5.9
Cc1cc(C)n2nc(-c3cccc(Br)c3)cc2n1 4.8* -11.5 -0.7 2.1 9.1* -16.7

4 consecutive records from above:
SMILES DAX1_inh-1 ADAM17_inh PG9_binder DAX1_inh-2 GAA850_FXN_act ADAM10_inh
CC[C@]12CCCN3CCc4c(n(c5ccccc45)C(=O)C1)[C@@H]32 0.5 -2.9 1.4 -1.8 -3.8 -31.8
Nc1nnc(-c2cccc(Cl)c2Cl)c(N)n1 0.5 -1.9 -2.1 0.7 1.8 -1.3
COc1ccc2cc(C3=CCCCC3)ncc2c1 1.7 -114.9 2.0 2.7 2.5 i
CC[C@H]1CN2CCc3cc(OC)c(OC)cc3[C@@H]2C[C@@H]1C[C@H]1NCCc2cc(OC)c(OC)cc21 -5.6 . . . -14.8 .
